Compound activity deposited in PubChem BioAssay by several laboratories.
MLL AF4-AF9 inh = inhibitors of AF4 peptide binding to AF9, primary screen, biochemical, AlphaScreen, biotin-AF4 peptide, FLAG-AF9, single point; hit rate 0.47% among 350,000; inhibition, % at 10 µM; AID 651704, 2012;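 active means every replicate reaching a set inhibition limit, whatever the replicate mean, cut at about 25% in these data; inconclusive means mean inhibition reaches that limit but some replicates miss it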;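 further: 0% = plate neutral control median and 100% = total signal loss; the record names both 10 and 1 µM as test concentration; the first replicate is given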
Target sequence (P42568 whole entry, looked up): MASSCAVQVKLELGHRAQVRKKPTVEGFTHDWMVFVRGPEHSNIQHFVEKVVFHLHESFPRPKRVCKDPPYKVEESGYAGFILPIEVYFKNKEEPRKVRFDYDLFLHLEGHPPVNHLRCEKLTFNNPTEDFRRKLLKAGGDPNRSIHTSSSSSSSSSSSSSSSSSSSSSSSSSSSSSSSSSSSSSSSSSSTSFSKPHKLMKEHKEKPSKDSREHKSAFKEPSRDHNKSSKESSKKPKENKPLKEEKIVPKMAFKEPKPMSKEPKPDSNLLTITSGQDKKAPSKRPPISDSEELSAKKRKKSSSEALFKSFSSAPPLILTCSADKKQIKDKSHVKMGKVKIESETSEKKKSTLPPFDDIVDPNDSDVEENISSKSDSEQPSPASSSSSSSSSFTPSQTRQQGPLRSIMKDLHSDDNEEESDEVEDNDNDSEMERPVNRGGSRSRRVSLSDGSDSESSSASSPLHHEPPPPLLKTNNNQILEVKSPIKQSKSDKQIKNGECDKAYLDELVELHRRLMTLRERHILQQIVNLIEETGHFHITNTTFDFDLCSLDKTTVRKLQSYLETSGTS
RanGTP-Impb inh = inhibitors of RanGTP-importin-beta interaction, primary screen, biochemical, FRET, CFP-Ran, YFP-importin-beta, homogeneous | cell-free CFP-Ran/YFP-importin-beta FRET ratio | Ran GTPase (GTP-bound) - importin-beta complex | hit rate 1.1% among 300,000 | inhibition, % (concentration not given with the values);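 active means most replicates above 15%; inconclusive means exactly half above 15%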;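 further: 0% = DMSO wells and 100% = Ran loaded with GDP instead of GTP; wells of about 40 µL received 100 nL stock; the first replicate is given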
T cruzi inh = inhibitors of intracellular T. cruzi growth, primary screen, luminescence, NIH3T3 host cells | inhibition, % (no concentration beside the values) | T. cruzi beta-gal in NIH3T3, 90 h | hit rate 1.4% among 300,000;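 active means mean inhibition across valid replicates above about 55%, limit read from the data; inconclusive means mean below that limit but half or more replicates reach it; inactive means mean below it, under half of replicates reach it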;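 further: signal also drops with host cell toxicity which is not excluded here; 0% = plate median of DMSO wells and 100% = zero luminescence signal; higher percent means less beta-gal luminescence so fewer parasites; stock transfer was 50 nL into about 50 µL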
Beta cell apopt = inhibitors of cytokine-induced beta cell apoptosis, primary screen, luminescence. INS-1E cytokine-induced death, ATP luminescence, 48 h; percent of positive-control rescue, neutral wells zero. protection from apoptosis, % (no concentration beside the values). hit rate 0.8% among 300,000;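 active means all replicates at 75% or more, or half of them and the mean; inconclusive means half reach 75% but not the mean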;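 further: 0% = cytokine-treated negative control wells and 100% = positive control rescue; higher means more ATP so stronger rescue from cytokine killing; wells of about 40 µL received 100 nL stock; the first replicate is given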
Vif A3G = inhibitors of Vif binding to APOBEC3G peptide, primary screen, biochemical, TR-FRET, GST-Vif 1-94, biotin-A3G peptide, dose response retest (AID 1117319); Virion infectivity factor (Human immunodeficiency virus type 1 group M subtype B (isolate …; TR-FRET GST-Vif / biotin-A3G peptide binding; higher % means a stronger effect; test concentration not given here; strong numbers were not always called active; inhibition, %; hits with a dose series show IC50 in µM; hit rate 0.57% among 260,000;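 active means above the screen mean plus three standard deviations and confirmed in dose response; inconclusive means results disagree or hit not tested in dose response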;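 further: Vif residues 1-94 fused to GST binding biotinylated APOBEC3G peptide 110-148; 0% = full assay without inhibitor and 100% = GST in place of GST-Vif; retest series ran down from 100 µM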
rRNA inh HTS = reduced GFP signal of wild-type E. coli, primary screen, bacterial rRNA inhibitor project, GFP/RFP fluorescence, OD600, single point; E. coli WT GFP vs humanized-ribosome RFP mutants, 24 h; active compounds read low; DMSO median 0, no signal -100; GFP signal change (wild-type ribosome), % (test concentration not listed); hit rate 1.6% among 350,000; AID 720706, 2013;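 active means significant combined selectivity score with lowered wild-type GFP, culture density cut under 30%, mutant RFP and density less affected; inactive means any of these conditions unmet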; further: one replicate is shown; some compounds called inactive have numbers as strong as hits
A1 inh = caspase 3/7 activation in MEF A1-2A-BIM cells, primary screen, A1 inhibitor project, cell-based, luminescence, HTS; Caspase-Glo 3/7 luminescence, 3 h; percent of clofoctol response, vehicle zero; caspase activation, % (no concentration beside the values); hit rate 0.066% among 330,000;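 active means over half of replicate activation scores above 10%, or exactly half above 10 with the replicate mean above 10; inconclusive means replicate mean below 10 yet half the replicates above 10; inactive means over half of replicates below 10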;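 further: wells of about 30 µL received 50 nL stock; many hits fall short of the cut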
Calb FLC = C. albicans growth inhibition with fluconazole, primary screen, CaCi-2 strain, Alamar Blue fluorescence; growth inhibition, % (no concentration beside the values); C. albicans CaCi-2 (fluconazole-resistant clinical isolate) + fluconazole, 48 h; AID 1979, 2009; hit rate 0.57% among 300,000;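 active means most replicates above 75%; inconclusive means exactly half above 75%; inactive means most below 75%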;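 further: all wells also contain fluconazole at 8 µg/ml as a sub-toxic cotreatment; 0% = median of DMSO wells and 100% = median of geldanamycin control wells; wells of about 8 µL received 7.5 nL stock; the first replicate is given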
rRNA inh HTS OD600 = further read-out of rRNA inh HTS, marked with its call; OD600 change, %; measured here: OD600 growth;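 optical density of the mix in the first replicate; 0 = DMSO median and -100 = no signal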
rRNA inh HTS RFP = also measured in rRNA inh HTS; calls as there; RFP signal change, %; measured here: RFP humanized mutant strains;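 first replicate; 0 = DMSO median and -100 = no signal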
* marks the source's active call; other numbers are inactive results; ? = inconclusive; / = no result given. Only part of the results is shown. The share of hits here may be higher or lower than overall.

SMILES	MLL AF4-AF9 inh	RanGTP-Impb inh	T cruzi inh	Beta cell apopt	Vif A3G	rRNA inh HTS	rRNA inh HTS OD600	rRNA inh HTS RFP	A1 inh	Calb FLC
CCOc1ccc2ccccc2c1/C=N/NC(=O)CNC(=O)c1ccccc1F	0.4	-0.6	-1	3	/	2	4	-1.4	0.3	0
CCOC(=O)CC1=NC(=O)CS1	/	1.9	-17	-2	9%	/	/	/	2.1	-8
CC(=O)c1cc(CN2CCN(C3CCN(C(C)C)CC3)C(CCO)C2)cs1 (stereo unspecified)	2.0	5.3	-7	-2	-2%	-2	4	-1.4	-0.1	5
CC(C)N1CCC(N2CCN(Cc3cc(F)ccc3-n3cccn3)CC2CCO)CC1 (stereo unspecified)	-1.8	1.5	-3	/	9%	14	9	1.0	0.0	-10
C/C(=N\NC(=O)c1cc(-c2ccccn2)nc2ccccc12)c1cccc([N+](=O)[O-])c1	0.9	-0.5	-6	3	-2%	2	3	-1.3	0.1	4
COC1CCN(Cc2c(C(=O)N3CCc4ccccc4C3)nc3ccc(Cl)cn23)CC1	1.2	8.1	-2	-3	/	3	6	3.2	0.0	-2
COc1ccc(CNC(=O)c2ccc(NC(=O)C3CCCO3)cc2)cc1 (stereo unspecified)	/	-4.2	-13	-1	68%	/	/	/	-0.5	-20
COc1ccc(C(C)N2CC34C=CC(O3)C(C(=O)OCC(C)C)C4C2=O)cc1 (stereo unspecified)	-2.6	0.3	-4	/	5%	/	/	/	/	-1
CC(N=Cc1cccc(O)c1O)c1ccccc1 (stereo unspecified)	/	-1.5	-15	-3	2.6µM*	/	/	/	-0.3	4
O=C(COC(=O)CCC(=O)c1ccc(F)cc1)Nc1nnc(-c2ccccc2)o1	0.4	2.4	-13	/	-3%	13	-20	4.3	-0.1	28
COCCn1c(=O)[nH]c(=O)c2c1nc(-c1ccc(-c3ccc(Cl)cc3[N+](=O)[O-])o1)n2Cc1ccccc1	7.7	-7.3	36	-1	?	/	/	/	0.0	24
COc1ccc(CCC(=O)NNC(=O)Cn2nc(C)cc2C)cc1	-6.4	-5.4	-7	-8	/	7	14	-0.7	-0.5	0
O=C(COC(=O)c1ncc(Cl)c(Cl)c1Cl)NNC(=O)c1ccccc1	8.8	7.1	-30	-1	/	3	13	0.5	0.3	4
CCCCCCCCCOC(=O)C[n+]1csc(CCO)c1C	/	2.0	5	0	-1%	/	/	/	-0.3	-52
CCCN(CCC)c1nc2ccccc2nc1C(C#N)C(=O)OCCOC (stereo unspecified)	/	37*	25	3	-1%	/	/	/	0.2	-1
O=c1cc(O)nc(-c2ccccc2)s1	-2.1	-2.5	-9	-4	-4%	9	6	0.4	-0.3	9
CCCCC(CCC(=O)Nc1nccs1)C(=O)O (stereo unspecified)	/	-0.6	-1	-2	?	/	/	/	/	-1
CCOc1ncccc1C(=O)OCC(=O)Nc1ccc(S(=O)(=O)N2CCCC2)cc1	-5.4	/	/	1	/	-5	-11	-0.5	-0.1	/
COc1ccc(CCNC(=O)CCS(=O)(=O)c2ccc(C)cc2)cc1OC	/	3.0	-25	1	32%	/	/	/	0.6	26
Cc1cccc(NC(=O)Cc2nnc(NC(=O)Nc3ccccc3F)s2)c1	-4.6	2.4	-4	8	7%	7	4	1.0	0.4	3
C=CCN(CC(=O)NCC1CCCO1)C(=O)CCC(=O)Nc1cc(C)on1 (stereo unspecified)	/	4.9	-11	-3	18%	8	7	1.3	-0.7	/
CCOC(=O)N1CCC(NC(=O)c2ccc3c(c2)N(C)C(=O)/C(=C/c2cccc(OC)c2)S3)CC1	0.2	-3.3	15	30	/	-3	-10	-0.9	-0.2	-10
COc1cccc(CSc2nnnn2-c2ccc(O)cc2)c1	3.1	1.7	-10	0	-9%	-42	-57	8.2	0.2	-2
CCOc1ccc(/C=N/NC(=O)c2cc(-c3ccco3)nc3ccccc23)cc1	/	2.8	-37	2	/	/	/	/	2.2	?
O=C(O)/C=C/c1cn(Cc2ccccc2)nc1-c1cccnc1	3.0	3.4	16	-5	/	2	0	-3.4	-2.0	-2
NS(=O)(=O)c1ccc(CNC(=O)c2sccc2-c2ccccc2)cc1	-1.1	0.5	-8	-6	/	-2	-2	-0.4	0.8	7
O=C(COc1ccccc1[N+](=O)[O-])Nc1ccccc1N1CCCC1	12	-2.8	4	-1	1%	-1	-2	0.2	-0.4	-53
CC1CCN(c2cc(N3CCOCC3)c([N+](=O)[O-])cc2F)CC1	/	4.3	1	-10	0%	/	/	/	0.3	2
CCn1ccnc1[C@@H]1C[C@H]2CN(Cc3ccccc3OC)C(=O)[C@]23CCCN13	-4.9	0.2	-17	-2	4%	6	3	0.2	0.8	10
CC(CCc1ccccc1)NC(=O)CN1C(=O)NC2(CCCCC2)C1=O (stereo unspecified)	1.7	-1.8	1	-1	3%	-1	-8	-9.5	-0.4	-2
COc1ccc(-c2csc(NC(=S)NC(=O)c3ccc(S(=O)(=O)N(C)C)cc3)n2)cc1OC	-0.5	-0.9	2	-4	1%	-27	-57	18	-0.1	2
O=C1CSC(c2cccnc2)N1c1ccccc1 (stereo unspecified)	-1.3	1.3	36	-5	/	0	10	-1.1	-0.1	-2
Cc1nc(NC(=O)c2ccccc2O)sc1C	-5.1	1.5	-2	10	2%	1	8	-2.0	-7.6	-4
O=C(O)COc1cnc2ccccc2n1	-0.4	0.4	5	2	2%	14	15	5.7	0.1	-13
CC(C)(C)NC(=O)/C=C/c1ccc(C(F)(F)F)cc1	-2.3	-0.8	-6	0	2%	/	/	/	0.2	-6
COc1ccc(N=C2SC(C(N)=O)CC(=O)N2CCc2ccc(OC)c(OC)c2)cc1 (stereo unspecified)	/	-3.3	-13	-8	5%	/	/	/	0.5	-5
Cc1cccc(OC(C)C(=O)Nc2ccccc2C(=O)N2CCCCC2)c1 (stereo unspecified)	-1.4	-1.8	-2	-1	/	1	-5	-2.5	-0.1	8
O=C(NCCc1c[nH]c2ccccc12)/C(=C\c1cccnc1)NC(=O)c1cccs1	/	-2.0	-26	-9	/	/	/	/	0.7	3
Cc1ccc(NC(=O)C2CC(O)CN2C(=O)OCc2ccccc2)cc1C (stereo unspecified)	-0.7	-0.1	-1	/	-2%	5	3	0.1	/	5
NCC(O)COc1ccc2c(c1)OCO2 (stereo unspecified)	/	0.6	6	2	24%	/	/	/	0.0	-7
Cc1ccc(CN(CC(O)COc2cccc3[nH]cc(C)c23)C(C)(C)C)cc1 (stereo unspecified)	29*	7.9	32	-2	-5%	-6	-33	9.4	-0.2	-26
CC(C)(C)c1ccc(C(=O)N2CCC(C(=O)NCc3ccncc3)CC2)cc1	/	1.5	-4	11	-4%	/	/	/	-0.2	-1
O=C(COc1ccc(Cl)cc1)Nc1cccc(S(=O)(=O)NC2=NCCCCC2)c1	-4.6	-3.4	5	0	-4%	-8	-11	2.4	0.4	/
O=C(NC(=S)Nc1nc(-c2cccc3ccccc23)cs1)c1cc2ccccc2o1	2.6	3.2	-30	0	/	5	9	-5.7	1.9	-4
CC(=O)OCP(C)(=O)COC(C)=O	/	-1.8	-2	5	-1%	/	/	/	0.1	-6
Cc1nc2sccn2c(=O)c1S(=O)(=O)NCCc1ccc(Cl)cc1	-2.0	-0.4	-9	-3	-1%	1	8	-1.0	0.9	35
Cc1ccc(NC(=O)c2cc([N+](=O)[O-])ccc2N2CCOCC2)cc1C	6.9	-1.8	5	7	-1%	-10	-14	-2.1	0.0	-21
C=CC[C@@H]1C=C[C@H](O/N=C/c2ccc(C(=O)N3[C@H](c4ccc(C)cc4)[C@@H](C)CC[C@H]3C(=O)OC)cc2)[C@@H](CO)O1	/	0.7	39	-2	6%	/	/	/	0.0	5
CSCc1c(C(=O)NC2CCCc3ccccc32)oc2ccccc12 (stereo unspecified)	/	2.1	12	-3	-4%	/	/	/	-0.3	0
Cn1ccnc1CN1CCN(C(=O)c2cc(COc3ccc(F)c(F)c3)on2)CC1	3.7	4.2	3	/	9%	10	8	-0.4	0.1	-14
Cc1ccc(S(=O)(=O)N2CCN(C(=O)COC(=O)COc3ccccc3)CC2)cc1	/	?	-9	-1	4%	/	/	/	0.4	?
CCCCn1c(N)c(N(CCOC)C(=O)CCNC(=O)c2ccccc2Cl)c(=O)[nH]c1=O	-4.4	3.4	4	2	-2%	-2	0	3.4	0.0	5
Cc1cc(C)n(-c2cc(Cl)ccc2[N+](=O)[O-])n1	-2.3	2.3	-20	-2	-7%	2	2	-1.2	-0.6	1
CS(=O)(=O)N1CCN(C(=O)c2ccncc2)CC1	/	?	-1	-2	?	/	/	/	-0.5	-8
COc1cccc(F)c1C(C[N+](=O)[O-])c1c(N)n(C)c(=O)n(C)c1=O (stereo unspecified)	-1.2	3.3	-2	97*	-1%	-24*	-0.9*	-4.1*	1.4	101*
COc1ccc(C2CC3(O)NC(=O)C(C#N)(C3C)C2(C#N)C#N)cc1 (stereo unspecified)	/	3.1	-23	-8	1%	20	7	1.3	0.5	-10
CC(=O)c1sc(NC(=O)c2ccccc2F)nc1C	-6.7	0.6	-17	14	-7%	5	7	-0.2	-6.9	14
Cc1coc2c(C)c3oc(=O)c(CCC(=O)N4C[C@H]5C[C@@H](C4)c4cccc(=O)n4C5)c(C)c3cc12	0.8	-2.9	7	19	/	-14	-11	5.6	-0.3	16
C#CCOCCOCCOCCNc1nc(N2CCN(C(=O)[C@H](CCC(=O)O)n3cc([C@@H](N)CO)nn3)CC2)nc(N2CCN(C(=O)[C@H](CCC(=O)O)n3cc([C@@H](N)CCSC)nn3)CC2)n1	-9.0	/	/	4	/	2	7	-2.2	0.3	/
COc1cccc(/C=C/C(=O)OCC(=O)NC2CC2)c1OC	9.9	/	/	1	-6%	5	10	0.2	-0.8	/
CNC(=S)N/N=C(\C)c1ccc2c(c1)OCCO2	3.7	3.5	-19	1	/	6	5	9.7	-1.4	-6

Look-ups from the entries so far.
In rRNA inh HTS RFP, O=C(COC(=O)CCC(=O)c1ccc(F)cc1)Nc1nnc(-c2ccccc2)o1 is listed with 4.3
In A1 inh, O=C(COC(=O)c1ncc(Cl)c(Cl)c1Cl)NNC(=O)c1ccccc1 is listed with 0.3
